Screening results (PubChem)
Sa growth inh: S. aureus growth inhibition; S. aureus RN4220 growth, OD600, 20 h, 42 °C; hits give low values; relative growth, % (concentration not given with the values); 170,000 tested, 0.53% active; AID 720641;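 active means growth at 42 °C up to 50% and 20 or more points under that at 30 °C, or under 10% at both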;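 further: 300 nL library stock went into each well; scaled to the means of positive and negative controls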
HCMV UL50-53 inh: cytomegalovirus nuclear egress complex inhibition; HTRF UL50-UL53 interaction, normalized percent inhibition; inhibition, % (concentration not given with the values); AID 1918969; 190,000 tested, 0.15% active;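 active means both replicates at 50% or more, plus weaker picks with an unusually low signal ratio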;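 further: stock transfer was 100 nL into about 20 µL; 0% = negative control wells and 100% = wells with untagged competitor protein; inactives centre near -12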
GIV Gai3 FP: inhibitors of GIV GBA-motif binding to rat Galpha-i3; Galpha-i3/FITC-GIV peptide fluorescence polarization, 90 min; hits give low values; scaled: aluminum fluoride 0%, vehicle 100%; percent of control (FP), % (concentration not given with the values); 210,000 tested, 0.42% active;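 active means replicate mean at 85% of control or lower, very high polarization wells dropped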;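 further: wells of about 15 µL received 100 nL stock; the first replicate is given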
Target sequence (P08753 whole entry, looked up): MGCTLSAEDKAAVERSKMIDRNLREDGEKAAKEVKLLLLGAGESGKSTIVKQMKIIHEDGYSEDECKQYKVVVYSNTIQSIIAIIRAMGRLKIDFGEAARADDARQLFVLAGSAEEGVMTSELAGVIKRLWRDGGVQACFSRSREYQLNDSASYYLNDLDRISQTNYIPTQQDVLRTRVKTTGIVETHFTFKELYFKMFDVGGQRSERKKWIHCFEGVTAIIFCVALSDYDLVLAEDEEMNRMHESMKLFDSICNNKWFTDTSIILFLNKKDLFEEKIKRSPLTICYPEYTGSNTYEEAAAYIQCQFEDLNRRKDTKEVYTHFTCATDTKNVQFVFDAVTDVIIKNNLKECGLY
Sa growth inh second temp: recorded beside Sa growth inh, whose call it bears; relative growth, %; measured here: growth at 30 °C;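 optical density after 20 h as mean of two plates; 100% = untreated growth and lower means inhibition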
* marks the source's active call; other numbers are inactive results; x = not tested or not shown; & = joins results of further samples. An unsorted share of the library; overall some 0.79% were active at least once.

SMILES	Sa growth inh	Sa growth inh second temp	HCMV UL50-53 inh	GIV Gai3 FP
O=C(NCCCN1CCCCC1)c1ccc2c(c1)ncn2C1CCCC1	89	92	3	106
CCOc1ccc(N(C(C)C(=O)NCCSc2ccc(Cl)cc2)S(C)(=O)=O)cc1 (stereo not given)	99	83	-18	97
CC1(C)Cc2ccccc2C(N/N=C/c2ccncc2)=N1	112	90	-32	102
COc1ccc(C2CC(=O)NC3=C2C(=O)CC(C)(C)C3)cc1 (stereo not given)	x	x	-9	93
COc1cc(OC)c(NC(=O)c2cc(-c3cccnc3)on2)cc1Cl	x	x	-13	98
CCCSc1ncc(Cl)c(C(=O)Nc2c(C(=O)Nc3ccc(C)cc3)oc3ccccc23)n1	107	90	-10	104
Cc1cc(C(=O)OCc2nc3ccccc3c(=O)n2CC#N)c(C)n1-c1ccc(F)cc1	92	97	-16	x
CC(C(=O)NCc1ccccc1)C1Sc2ccccc2N(Cc2cccc(Cl)c2)C1=O (stereo not given)	121	88	2	105&100
CCn1c(=O)c(N2CCC(C(=O)NCCc3ccccc3Cl)CC2)nc2ccccc21	x	x	12	102
O=C(NCc1ccccc1)C1CC(=O)N(C2CCCCCC2)C1 (stereo not given)	104	85	7	101
CN(C(=O)COC(=O)c1cc(=O)[nH]c(=O)[nH]1)C1CCCCC1	94	98	4	x
OCCCc1[nH]nc(-c2ccc(Cl)cc2)c1Br	80	75	-10	104
CC(C)CC(C(=O)O)N1C(=O)/C(=C\c2cccn2C)SC1=S (stereo not given)	58	40	-80	193
COc1cccc(CNC(=O)NCc2noc3ccc(C)cc23)c1	90	71	x	103
COC(=O)c1nc2ccccc2nc1N1CCN(c2ccccc2OC)CC1	x	x	-66	97
CCOc1ccc(CCNC(=O)c2oc3cc4sc(N(C)C)nc4cc3c2C)cc1	x	x	-10	99
CCCCCn1c(=O)[nH]c2cc(C(=O)N3CC=C(c4ccccc4)CC3)ccc2c1=O	x	x	-16	100
COC(CNC(=O)c1ccc2c(c1)N(Cc1cc(C)ccc1C)C(=O)c1ccccc1S2=O)OC (stereo not given)	108	89	x	96
C=CCn1c(SCN2C(=O)c3ccccc3C2=O)nnc1C1CCCCC1	104	95	-39	x
Cc1ccc(C(=O)Nc2ccc3nc(N4CCC(N5CCCCC5)CC4)cc(C(=O)O)c3c2)cc1	x	x	-59	106
Cc1ccc(-n2nc(C)c3c(C)c(CCC(=O)NC(C)c4ccccc4)c(C)nc32)cc1C (stereo not given)	x	x	-22	99
Cc1oc(-c2cccc(Cl)c2)nc1CN1CCC(C(=O)NCCCN2CCN(c3ccc(F)cc3)CC2)CC1	72	87	-8	112
COc1ccc(-c2onc(C)c2C)cc1S(=O)(=O)NCC1CCCO1 (stereo not given)	x	x	-6	106
CC(C)c1c(C#N)c(N)nc(SC2CC(=O)N(c3ccccc3)C2=O)c1C#N (stereo not given)	x	x	-19	105
CC(C)CCNC(=O)c1ccc(NC(=O)N2CCCCc3ccccc32)cc1	105	97	6	97

Compound profiles (already shown). Screens in order: Sa growth inh	Sa growth inh second temp	HCMV UL50-53 inh	GIV Gai3 FP
`O=C(NCCCN1CCCCC1)c1ccc2c(c1)ncn2C1CCCC1` as listed: 89	92	3	106
`COC(=O)c1nc2ccccc2nc1N1CCN(c2ccccc2OC)CC1` as listed: x	x	-66	97
`Cc1ccc(C(=O)Nc2ccc3nc(N4CCC(N5CCCCC5)CC4)cc(C(=O)O)c3c2)cc1` as listed: x	x	-59	106
`COc1ccc(-c2onc(C)c2C)cc1S(=O)(=O)NCC1CCCO1` (stereo not given) as listed: x	x	-6	106
`COc1ccc(C2CC(=O)NC3=C2C(=O)CC(C)(C)C3)cc1` (stereo not given) as listed: x	x	-9	93

Other records follow.
SMILES	Sa growth inh	Sa growth inh second temp	HCMV UL50-53 inh	GIV Gai3 FP
CCCc1cc2c(=O)c(-c3ccc4c(c3)OCO4)c(CCC)oc2cc1O	123	79	-5	98
CCOC(=O)c1c(-c2ccccc2)oc2c1cc(OC(=O)c1c(Cl)c(Cl)c(Cl)c(Cl)c1Cl)c1ccccc12	x	x	18	105
Cc1ccc(NC(=O)Cn2nc(C(=O)Nc3ccc(C)cc3)ccc2=O)cc1	109	74	x	102
COc1ccc(/C=C2/SC(=O)N(CC(=O)NCCO)C2=O)cc1OC	81	95	x	101
O=c1oc(-c2ccccc2N=Cc2sc3ccccc3c2O)nc2ccccc12	118	90	x	115
C/C(Nc1ccc(F)cc1)=C1/CCOC1=O	102	90	38	104
CCNS(=O)(=O)c1ccc(SC)cc1	106	100	-10	101
O=C1c2ccccc2-c2c1c1ccccc1c(=O)n2Cc1ccc2c(c1)OCO2	87	86	-34	100
CCC1CCc2sc(C(=O)O)cc2C1 (stereo not given)	95	90	-5	x
CCCNC(=O)c1cnn2c(C(F)(F)F)cc(-c3ccc(Br)cc3)nc12	x	x	-15	100
Cc1cc(C)c2c(N)c(C(=O)C(C)(C)C)sc2n1	103	98	-52	102
Cc1sc2ncn(CC(=O)Nc3ccc(C(C)C)cc3)c(=O)c2c1S(=O)(=O)N1CCN(c2ncccn2)CC1	97	91	-28	106
CCN(CC)S(=O)(=O)N1CCC(C(=O)NCCc2ccccc2)CC1	99	94	-12	100&104
CCC(Sc1ccccn1)C(=O)Nc1cccc2ccccc12 (stereo not given)	78	95	-10	x
COc1ccc(CN(Cc2ccc(OC)cc2)S(=O)(=O)c2c(C)noc2C)cc1	91	86	-28	103
OCC1CCCC1O (stereo not given)	291	76	-8	101
O=C(Nc1cccc(C(F)(F)F)c1)c1cc(-c2ccc3c(c2)OCCO3)on1	98	90	5	101
CCOc1ccccc1NC(=O)C(C)N(c1ccccc1)S(C)(=O)=O (stereo not given)	100	94	16	100
COc1ccc2nc(NC(=O)c3ccc(S(=O)(=O)N4CCc5ccccc54)cc3)sc2c1	x	x	-23	106
N#CC(C(=O)NCc1ccccc1)c1nc2ccccc2nc1N1CCCC1 (stereo not given)	90	100	-17	x
C=CCOc1cccc(C2C(C(=O)c3ccc(C)o3)=C(O)C(=O)N2c2nnc(C)s2)c1 (stereo not given)	110	80	-69	x
COc1cc(NC(=O)Cn2c(-c3ccccc3)cc(C(C)=O)c2C)cc(OC)c1	135	94	x	103
CCCN=C1NN=C(c2ccc(OCC)cc2)CS1	111	86	-9	x
CC(C)(C)OC(=O)NN1C(=O)c2ccccc2C1=O	102	100	-19	102
CCCOC(=O)c1ccc(NC(=O)CN(C)C)cc1	101	98	-18	x

(listing goes on)
SMILES	Sa growth inh	Sa growth inh second temp	HCMV UL50-53 inh	GIV Gai3 FP
O=C1CCC(C(=O)NCCCn2ccnc2)N1 (stereo not given)	99	90	-14	94
CCCNC(=O)c1cc(Cl)c(NC(C)=O)cc1OC	102	96	-2	101
CC1(c2ccccc2)CC(C)(C)N2C(=O)Cc3cccc1c32 (stereo not given)	85	95	-7	x
CC1CCCN(Cc2c(O)ccc3c(=O)c(Oc4ccc(C(C)(C)C)cc4)c(C(F)(F)F)oc23)C1 (stereo not given)	90	88	-23	105
CCOC(=O)c1ccccc1NC(=O)c1cc2c(=O)oc3ccc(C)cc3c2s1	111	84	3	104
CC12CCC(C(=O)O)(C/C1=N\O)C2(C)C (stereo not given)	97	85	-16	101
CCN(Cc1ccccc1)c1ccc(C(=O)O)cc1NS(=O)(=O)c1ccc(Br)cc1	x	x	-15	98
Cc1ccc(F)cc1NC(=O)CSc1ccccn1	115	86	-6	104
Cc1ccc(S(=O)(=O)n2nc(-c3ccco3)nc2NCc2ccc(N(C)C)cc2)cc1	106	95	7	108
Cc1ccc(C(=O)Nc2c[nH]c(=O)[nH]c2=O)cc1	101	97	-17	104
COC1(C)COC(C)(OC)CO1 (stereo not given)	117	84	-27	x
COc1ccc(-c2cc(OC(=O)c3ccccc3)c3c(C)oc(C)c3c(=O)c2)cc1OC	103	89	-54&-35	119&118
C/C(=N\OC(=O)c1ccccc1)c1csc(-c2snnc2C)n1	96	87	-13	104
CC(C)c1c(O)nc2n(c1=O)CCCS2	x	x	-11	108
COc1ccc(CC(=O)NCc2nnc(SCCOc3ccccc3)n2C)cc1	104	98	14	103
Cc1ccccc1Nc1c(-c2ccc(O)cc2)nc2cnccn12	94	84	-21	101
O=C(O)CCCNc1ncnc2ccc(Br)cc12	80	85	-10	x
CC(=O)N(CCC(c1ccccc1)C1CCOC(C)(C)C1)Cc1ccccc1 (stereo not given)	92	76	-8	97
COc1ccc(NC2=Nc3ccccc3CCC2)cc1	111	98	x	97
CCc1cccc(NC(=O)CCS(=O)(=O)c2ccc(C)cc2)c1	93	88	x	110
CCC(Sc1nnc(-c2cc(C)ccc2NC(C)=O)c(=O)[nH]1)C(=O)Nc1ccc(F)cc1 (stereo not given)	x	x	-13	98
O=C(Nc1ccc2c(c1)oc1ccccc12)C(F)(F)F	115	90	-13	98
COc1ccc(Cn2c(=O)[nH]c3cc(C(=O)NCCCN4CCCCC4)ccc3c2=O)cc1	91	89	-5	101
Cc1ccc(-c2nc3nc(C)cc(NCCO)n3n2)cc1	x	x	11	106
COc1ccc(-c2noc(CN3CCC(C(=O)N4CCN(c5ccccn5)CC4)CC3)n2)cc1OC	x	x	-2	111

The final 4 records of the section above lead into the next:
SMILES	Sa growth inh	Sa growth inh second temp	HCMV UL50-53 inh	GIV Gai3 FP
O=C(Nc1ccc2c(c1)oc1ccccc12)C(F)(F)F	115	90	-13	98
COc1ccc(Cn2c(=O)[nH]c3cc(C(=O)NCCCN4CCCCC4)ccc3c2=O)cc1	91	89	-5	101
Cc1ccc(-c2nc3nc(C)cc(NCCO)n3n2)cc1	x	x	11	106
COc1ccc(-c2noc(CN3CCC(C(=O)N4CCN(c5ccccn5)CC4)CC3)n2)cc1OC	x	x	-2	111
O=C(O)C1CCCCC1C(=O)Nc1cccc(C(=O)N2CCCCC2)c1 (stereo not given)	108	100	-1	96
CC1CC(C)CN(C(=O)CSc2ncnc3ccccc23)C1 (stereo not given)	119	82	-32	x
COC(=O)c1c(NC(C)=O)sc2c1CCC2	96	90	-20	x
C=CCn1c(=C(C#N)C#N)s/c(=C\c2ccc(Br)cc2)c1=O	74	95	-34	x
CCNc1nc(NCC)n2c(SCC(=O)N3CCc4ccccc4C3)nnc2n1	79	84	-29	x
COc1ccc(Nc2nc3ccccc3n3cnnc23)cc1	x	x	-25	97
COc1ccc(C(=O)Nc2ccc(-c3cn4ccccc4n3)cc2)cc1	102	84	x	100
Cc1ccc(-c2nnc(N3CCOCC3)c3ccccc23)cc1S(=O)(=O)NCc1ccccn1	94	95	-2	101
Cc1ccccc1NC(=O)CCN1C(=O)c2ccccc2Sc2ncccc21	99	92	x	102
CC(C)NC(=O)C1CCCN(C(=O)c2cc(-c3cccnc3)n[nH]2)C1 (stereo not given)	x	x	-28	101
Cc1ccc(CN(C(=O)COc2c(F)c(F)c(F)c(F)c2F)C2CCS(=O)(=O)C2)o1 (stereo not given)	110	84	x	97
CCC1(C)NC(=O)N(NC(=O)c2ccc(CSc3ncn[nH]3)cc2)C1=O (stereo not given)	75	93	-26	x
O=C(NCCc1nc(-c2ccccc2)no1)c1cc(-c2ccc(Br)cc2)on1	x	x	0	111
NC1=NC(c2cccc(Cl)c2)N(CCc2ccc(F)cc2)C(N)=N1 (stereo not given)	87	80	x	105
Cc1ccc(C)c(SCC(=O)Nc2ccc(-n3cnnn3)cc2)c1	98	90	-26	x
CCC(=O)N1CCCC1c1nc2ccccc2n1CCCCOc1ccc(C)cc1 (stereo not given)	x	x	-24	100
COCCOC(=O)C1=C(C)NC2=C(C(=O)CC(c3ccccc3)C2)C1c1cc(OC)c(OC)c(OC)c1 (stereo not given)	x	x	-43	103
Cc1ccsc1CC1C(=O)Nc2ccc(Cl)cc21 (stereo not given)	x	x	-10	106
Cc1ccccc1-c1ccc(N2CCCC(C(=O)N(C)Cc3ccccc3)C2)nn1 (stereo not given)	x	x	1	99
CCNC(=O)C1CCCN(C2=NS(=O)(=O)c3ccccc32)C1 (stereo not given)	85	89	-17	x
Cc1cc(N2CCOCC2)n2nc(-c3ccc(C(C)(C)C)cc3)nc2n1	x	x	-22	101
COc1ccc(C)cc1NC(=O)Cn1c(=O)ccc2cc(S(=O)(=O)N3CCCC3)ccc21	97	89	x	98
O=C(Nc1nncs1)C1CCCCC1	105	81	-15	x
COc1ccc2cc(-c3nc4ccccc4[nH]3)c(=N)oc2c1	97&71	79&74	-31&-51	x
C=CCc1ccccc1OCC(O)CN1CCN(c2ccccc2)CC1 (stereo not given)	97	103	14	109

Remaining list, next part.
SMILES	Sa growth inh	Sa growth inh second temp	HCMV UL50-53 inh	GIV Gai3 FP
CSc1ccc(CCNC(=O)c2cnc3c(C)cccn3c2=O)cc1	126	98	x	105
O=C(CSc1ncccn1)NC(=O)NC1CCCCC1	83	92	-28	x
CCC(=O)Nc1nc2ccc(C)cc2s1	126	81	-5	x
Cn1cnnc1SCC(=O)NC1CCCC1	103	99	-41	98
Cc1ccc2occ(CC(=O)Nc3ccc(C)c(Cl)c3)c2c1	105	89	-7	106
O=C1CCCN1C(=O)CSc1nc2ccccc2n1CCc1ccccc1	105	101	10	x
Cc1ccc(Nc2c(-c3ccc(N(C)C)cc3)nc3ccccn23)cc1	100	109	10	102
CCCN1C(=O)c2ccccc2NC1c1ccc(OC)c(COc2ccc([N+](=O)[O-])c(C)c2)c1 (stereo not given)	x	x	-16	99
